# LANA-nucl inh: inhibitors of KSHV LANA binding to nucleosomes; FITC-LANA1-23 / chicken nucleosome fluorescence polarization; stronger effect = lower value; z-score (concentration not given with the values); actives 0.3% (n = 51,000); AID 720717;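 active = both repeat wells score below -2 in polarization z-score versus plate sample wells, excluding overly bright wells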;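 also: 100 nL library stock added to about 30 µL; numbers are from one replicate; some results filed as inactive read as strong as hits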
#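 test system = FITC-LANA peptide and chicken nucleosomes | amount = 240 nM purified chicken nucleosomes (480 nM peptide binding sites), final | reagent = 50 nM FITC-LANA1-23 probe | medium = TEN-BT buffer, pH 7.5 | doses = single compound addition by pin transfer, 100 nL per well | timing = 10–45 min, room temperature | detection = fluorescence polarization | repeats = duplicate plates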
# BasE inh: inhibitors of Acinetobacter baumannii siderophore enzyme BasE | inhibition, % (concentration not given with the values) | actives 0.1% (n = 84,000) | AID 485350 | purified BasE, fluorescence polarization binding displacement;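 active = both replicates above 25% with normal brightness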;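 also: 0% = negative plate control signal and 100% = positive plate control signal; stock transfer was 100 nL into about 30 µL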
# * hit, by the source's call; nt = not tested or not shown. A portion of the library. The share of hits here may be higher or lower than overall.
# Every second line gives: LANA-nucl inh	BasE inh
Cn1cnnc1SCc1nc2ccccc2[nH]1
    -0.0325	-1.5
CCn1nnnc1NCc1cccc(Cl)c1
    -1.04	3.5
CCN1CCN(C(=O)c2ccccc2C(=O)Nc2ccc(S(=O)(=O)N3C(C)CCCC3C)cc2)CC1 (stereo not given)
    0.246	-1.2
Clc1ccc2nc(-c3cccs3)cn2c1
    0.311	nt
O=C(Nc1ccc(OCc2ccccc2)cc1)OCC1CN(Cc2ccccc2)CCO1 (stereo not given)
    nt	0.1
CN1C(=O)N(C)C2NC(SCC(=O)O)=NC21 (stereo not given)
    nt	2.0
CN1C(=O)C(O)(c2nnc(-c3ccccc3)o2)c2ccccc21 (stereo not given)
    nt	0.8
CN(Cc1ccccc1)C(=O)CN1C(=O)c2ccccc2C1=O
    -0.191	2.4
COC(=O)c1sc2nc3n(c(=O)c2c1C)N=C(c1cccc(OC)c1)CS3
    -0.664	2.9
Cc1c(C)c(C)c(C(=O)/C=N/N)c(C)c1C
    nt	-0.7
CN1C(=O)C[C@@H](C(=O)O)[C@@H]1c1ccccc1Cl
    -0.198	nt
c1ccc(NCCNc2ncnc3sccc23)nc1
    nt	-5.8
N#Cc1ccc(OCC(=O)N2CCOCC2)cc1
    nt	1.6
COc1ccc(CC(=O)OCC(=O)Nc2ccc(N3CCOCC3)cc2)cc1
    nt	3.0
Cc1cc(C)c(C)c(S(=O)O)c1C
    nt	2.2
COC(=O)C(C#N)c1nc2ccccc2nc1Cl (stereo not given)
    nt	-1.4
CC1(C)CC(=O)c2cc(C(=O)N3CCCC(C)(C)C3)c(=O)n(-c3ccccc3)c2C1
    0.652	-1.8
C/C(=N/O)c1nnc2cc(C)nn2c1C
    -0.0635	1.5
Cc1cccc(OCc2nnc(SCC(=O)c3cc(C)n(-c4ccc5c(c4)OCO5)c3C)o2)c1
    nt	-1.2
O=C1CCCC2=C1C(c1ccccn1)C1=C(CCCC1=O)N2
    nt	4.5
S=C(Nc1cccnc1)Nc1cccnc1
    1.17	0.4
COc1ccc(Cn2cnc3c2c(=O)n(C)c(=O)n3C)cc1
    nt	3.5
O=C1CCC(C(=O)N2CCCC2c2nc3ccccc3s2)=NN1c1ccccc1 (stereo not given)
    nt	0.5
Cc1ccc(N2CC(NC(=O)NCc3ccccn3)CC2=O)cc1 (stereo not given)
    -1.22	1.6
O=C(Nc1ccccc1)n1nnc(C2CN(Cc3ccccc3)CN(Cc3ccccc3)C2)n1
    nt	1.9
Cc1cc(N2CCOCC2)nc2ccc(NC(=S)NC3CC3)cc12
    -0.5	2.5
C=C1SC(Nc2c(CC)cccc2CC)=NC1(C)C
    nt	1.5
CCS(=O)c1ccccc1C(=O)OCc1cc(=O)oc2cc(C)c(C)cc12 (stereo not given)
    nt	0.6
CN1CCc2nc3ccccc3c(C(=O)OCC(=O)Nc3ccccc3C#N)c2C1
    nt	0.0
O=C(Cn1cnc2c(nnn2Cc2ccc(Cl)cc2)c1=O)NCC1CCCO1 (stereo not given)
    0.641	-2.4

# Further results follow:
# Every second line gives: LANA-nucl inh	BasE inh
Cc1ccc(S(C)(=O)=NC(=O)NC(=O)c2c(Cl)cccc2Cl)cc1 (stereo not given)
    nt	-10.4
CC1CN(Cn2nc(-c3cccs3)n(-c3ccccc3)c2=S)CC(C)O1 (stereo not given)
    nt	-2.7
C=CCN1C(C(=O)c2ccccc2)=C(OC(=O)c2ccccc2)c2ccccc2S1(=O)=O
    nt	1.7
CCOC(=O)c1c(N)n(-c2ccccc2)c2nc3ccccc3nc12
    -0.507	-0.5
CCOc1ccccc1C(=O)Nc1nncs1
    -0.104	-1.5
Cc1ccnc(N(C(=O)Nc2ccc(Cl)cc2)C2=NCC(C)S2)c1 (stereo not given)
    0.246	-2.3
NS(=O)(=O)c1ccc(NNC(=O)CC2(CC(=O)O)CCCC2)cc1
    -0.835	1.5
CCCNC(=O)c1ccc(CN2CCCn3nc(C)cc32)cc1
    -0.691	-0.1
CCOC(=O)c1sc(-c2ccc(C)cc2)cc1N
    nt	1.2
C=CCc1ccc(O)c(-c2ccc(O)c(CC=C)c2)c1
    0.12	nt
O=C(NCc1n[nH]c(=S)n1-c1ccccc1)c1ccccc1
    nt	3.5
Cc1cccc(-c2ocnc2C(=O)Nc2ccc(N3CCN(S(C)(=O)=O)CC3)cc2)c1
    -0.256	2.4
CCCCCC(=O)NC1CCN(C)CC1
    -0.74	2.5
Cc1cc(C2N=C(N)Nc3nc4ccccc4n32)c(C)n1C1CC1 (stereo not given)
    nt	1.8
CN(Cc1ccccc1)C(=O)Cn1cnc(S(=O)(=O)N2CCCC2)c1
    -1.19	-0.2
CC(=O)Nc1cccc(OCC(=O)N(C)c2ccccc2)c1
    0.183	1.0
CCOC(=O)c1cc(-c2ccccc2)n(CCC(=O)NCc2cccs2)c1C
    -1.65	-0.2
CS(=O)(=O)Nc1cccc(C(=O)NCc2ccccc2)c1
    1.84	-2.6
COc1ccc2c(c1)CN(c1ccc(C)cc1C)CO2
    1.12	-1.8
COCc1[nH]nc2c1C1(CCC(C(C)(C)C)CC1)C(C#N)=C(N)O2 (stereo not given)
    0.011	2.6
CN(C)NC(=S)Nc1ccc(S(=O)(=O)N2CCCCC2)cc1
    -0.708	1.5
CN1/C(=C(/C#N)C(=O)CSc2nc(C3CC3)n(-c3ccccc3)n2)Sc2ccccc21
    nt	-2.4
Cc1ccc(N=Cc2c(O)[nH]c(=S)[nH]c2=O)cc1
    -0.156	9.9
COc1cccc(CCC(=O)O)c1OC
    nt	0.3
CN1CCN(C(=S)c2cn(Cc3ccc(F)cc3)c3ccccc23)CC1
    nt	1.6
CCCCc1nc2c(c(=O)[nH]1)C(C)(C)Cc1ccccc1-2
    0.79	-0.6
N#C/C(=C/c1cn(CC(=O)O)c2ccccc12)c1ccc(F)cc1
    -0.719	5.6
Cc1onc(-c2ccccc2)c1C(=O)OCC(=O)c1ccc2c(c1)OCCO2
    nt	1.5
Cc1nn(C(C)(C)C)c(NC(=O)c2ccccc2)c1C#N
    nt	0.5
NC(=O)C1CCN(Cc2ccccc2)CC1
    0.234	0.4

# Next entries follow.
# Every second line gives: LANA-nucl inh	BasE inh
NC(=O)CSCc1ccc(Br)cc1
    -0.472	-1.5
CCn1c(C(=O)Nc2cc(C)ccc2C)cc2sc(Cl)cc21
    -0.991	0.3
Cc1ccc(CC(C#N)Sc2nnc(-c3cccnc3)n2Cc2ccccc2)cc1 (stereo not given)
    nt	-3.4
CCc1ccc(OC)c(S(=O)(=O)NC2CCCCC2)c1
    -0.732	0.9
S=C(Nc1ccc(N2CCOCC2)nc1)Nc1cc(Cl)ccc1Cl
    nt	-0.1
COc1cc(CN2CCCC(O)C2)cc(OC)c1OC (stereo not given)
    -0.0875	1.7
O=C(CC1SCC(C(=O)O)NC1=O)NCc1ccccc1 (stereo not given)
    0.275	0.1
CC(C)OC(=O)C1Cc2ccccc2CN1S(=O)(=O)c1cccs1 (stereo not given)
    nt	0.6
Cn1nc(C(F)(F)F)c2cc(-c3nc(-c4ccc(C(F)(F)F)cc4)no3)sc21
    -0.445	2.0
CC(=O)Nc1cc(NC(C)=O)[nH]n1
    -0.533	-2.0
CCOC(=O)C1CCCN(CC(=O)/C=C2/N(C)c3ccccc3C2(C)C)C1 (stereo not given)
    nt	-0.2
c1ccc(Nc2ncnc3c2oc2ccccc23)cc1
    -0.222	-0.7
CN1C(=O)C(C(=O)NC(C)(C)C)C2CC1(C)Oc1ccccc12 (stereo not given)
    nt	0.3
Nc1[nH]nc2nc(-c3ccccc3)c3c(c12)CCC3
    -0.112	-0.6
COC(=O)c1c(O)c2c([nH]c1=O)CCCC2
    1.68	0.0
CCOC(=O)c1cccc(NC(=O)c2cccc3c2C(=O)N(C2CCN(C(=O)OCC)CC2)C3)c1
    -0.412	-1.6
O=C(c1cc2cc(Br)ccc2oc1=O)N1CCCc2ccccc21
    nt	-0.3
NC(=S)N/N=C1\CCOc2ccc(Cl)cc21
    -1.42	0.6
COc1cccc(NC(=S)NCc2cccn2C)c1
    -0.0435	-1.4
CN(Cc1c(F)cccc1Cl)S(=O)(=O)c1cn(C)c(=O)n(C)c1=O
    nt	-2.0
O=C(NC1CCCCCCC1)c1c[nH]c2ccc(S(=O)(=O)N3CCOCC3)cc2c1=O
    -0.8	1.9
O=C(CN1CCC(c2nc3ccccc3o2)CC1)Nc1cc(F)ccc1F
    nt	0.6
CN(CCOc1ccc(Br)cc1)Cc1nnc(-c2ccc(F)cc2)o1
    nt	0.9
O=C(COc1ccc(Cl)cc1)NCC(c1ccco1)N1CCc2ccccc2C1 (stereo not given)
    0.0015	1.5
CCN1CCc2c(sc3[nH]c(=S)n(Cc4ccccc4)c(=O)c23)C1
    nt	3.5
CCCCNC(=O)C1CCN(S(=O)(=O)c2cccc3nsnc23)CC1
    -0.407	-0.8
CCOC(=O)c1sc(SC#N)c(C(=O)OCC)c1C
    nt	0.5
Cc1ccc(N2C(=O)C3Sc4[nH]c(=O)sc4C(c4ccccc4)C3C2=O)cc1 (stereo not given)
    nt	1.4
Cn1cc(Br)c(NC(=O)/C=C\C(=O)O)n1
    -0.374	1.0
O=C(N/N=C1\CCS(=O)(=O)c2ccc(F)cc21)c1ccc(O)cc1
    nt	55.1*

# Structural class: the compounds so far containing an aryl thioether with sulfur outside any ring (4)
# Every second line gives: LANA-nucl inh	BasE inh
Cn1cnnc1SCc1nc2ccccc2[nH]1
    -0.0325	-1.5
Cc1cccc(OCc2nnc(SCC(=O)c3cc(C)n(-c4ccc5c(c4)OCO5)c3C)o2)c1
    nt	-1.2
CN1/C(=C(/C#N)C(=O)CSc2nc(C3CC3)n(-c3ccccc3)n2)Sc2ccccc21
    nt	-2.4
Cc1ccc(CC(C#N)Sc2nnc(-c3cccnc3)n2Cc2ccccc2)cc1 (stereo not given)
    nt	-3.4

# Later entries
# Every second line gives: LANA-nucl inh	BasE inh
COc1ccc(C(=O)/C=C/Nc2ccccn2)c(OC)c1
    nt	-0.1
COc1cc(OC)cc(C(=O)N(C)CCc2ccc(OC)c(OC)c2)c1
    nt	0.2
CC(=O)N(c1ccccc1)c1nc(CSc2nnc(Cc3cccs3)n2C)cs1
    nt	1.7
COc1cc(CO)ccc1OCC(=O)NC(C)(C)C
    -1.26	2.0
COc1ccccc1CN(C)C(C)C(=O)NCC1CCCCC1 (stereo not given)
    nt	1.3
CC(CCN1CCCN(C)CC1)c1ccccc1 (stereo not given)
    0.523	-0.9
Clc1ccc(CN2CCN(/N=C/C3=C(N4CCOCC4)C(=C\c4ccccc4)/CC3)CC2)cc1
    nt	0.6
CC1CC1C(=O)OCc1cc(=O)n2cc(Br)ccc2n1 (stereo not given)
    nt	-2.7
C=C(C)Cn1cnc(-c2ccccc2)c1-c1ccccc1
    nt	0.3
O=c1[nH]c2ccc(NCc3ccccn3)cc2[nH]1
    -0.205	2.3
CCOc1ccc(N2CSC(=S)N(c3ccc(OCC)cc3)C2)cc1
    nt	0.6
CC(CC(=O)Nc1cccc(C(F)(F)F)c1)N1CCCC1 (stereo not given)
    -0.406	nt
COc1cccc(-n2c(C)c3c(C)nnc(C)c3c2C)c1
    0.546	-2.5
CCOC(=O)c1cnn(-c2ccccc2)c1N(C(=O)c1ccccc1F)C(=O)c1ccccc1F
    nt	1.8
N#Cc1nc(-c2ccccc2F)oc1N1CCN(c2ccccc2)CC1
    -1.17	2.7
COc1ccccc1C(C)NCC(=O)Nc1ccccc1C#N (stereo not given)
    nt	0.9
Cc1cc(C(=O)N/N=C/c2[nH]ncc2Cl)no1
    -0.027	-1.1
CC12CCC(=O)N1C(C(=O)N1CCN(S(=O)(=O)c3ccc(F)cc3)CC1)CS2 (stereo not given)
    nt	3.0
Cc1ccc(CC(C#N)Sc2nc3ccccc3n2CCC#N)cc1 (stereo not given)
    nt	-0.8
CSc1nc(C)cc(-c2ccccc2)n1
    nt	0.9
Cc1cnc(C)c(N2CCC(C(=O)NCC3CC3)CC2)n1
    0.144	-0.3
O=C1C2ON(c3ccc(Cl)cc3)C(c3ccc(F)cc3)C2C(=O)N1Cc1ccccc1 (stereo not given)
    nt	2.2
O=C(NCc1ccc(Cl)cc1)c1ccc(CN2CCOCC2)cc1
    -1.22	0.0
C[n+]1cc(C(=O)NCCC[N+]2(C)CCCC2)ccc1/C=N/O
    nt	1.1
COc1ccc(C2=Nc3ccccc3SC(C(=O)O)C2)cc1 (stereo not given)
    -0.02	1.4
O=C(Nc1ccc(F)c(F)c1)c1cnn(-c2ccccc2)n1
    nt	1.2
C=CCSc1nc2c(c(-c3ccc(C)o3)c1C#N)CCCC2
    nt	2.6
Cc1cccc(OCCNCCO)c1C
    -1.1	1.3
CS(=O)(=O)Nc1ccc2oc3ncccc3c(=O)c2c1
    nt	4.2
CCOC(=O)c1cc2c(=O)n3ccccc3nc2n(C)c1=NC(=O)c1ccc(OC)cc1
    -0.202	0.2

# (continued)
# Every second line gives: LANA-nucl inh	BasE inh
Cc1ccc2c(COC(=O)c3ccc(Cl)nc3)cc(=O)oc2c1
    nt	1.1
CCOC(=O)N1CCN(C(=O)c2cc(-c3ccc(F)cc3)n[nH]2)CC1
    -0.976	0.4
CCC(CC)NC(=O)CSc1nc(C)c(C)n1CC(C)C
    nt	-0.8
Nc1nc2nc(-c3cccs3)cc(C(F)(F)F)c2s1
    nt	1.3
O=C(NN1CC(=O)N(c2ccccc2-c2ccccc2)C1=O)c1ccncc1
    0.31	2.5

# Compound activity: PubChem, ICCB-Longwood Screening Facility, Harvard Medical School
